TRPML1 blocker: qHTS for Inhibitors of the Human Mucolipin Transient Receptor Potential 1 (TRPML1); Mucolipin-1 (Homo sapiens), Q9GZU1; TRPML1-inducible cells, Ca2+ dye fluorescence, FDSS; stronger effect = lower value; inhibition of EC80 agonist-evoked calcium signal; activity change, negative = inhibition, % (concentration not given with the values); 390,000 tested, 0.02% active; AID 624415, 2012; in the data active means activity change below about -50%; inconclusive means about -30% to -50%; inactive means above about -30%;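 also: stimulus is agonist 54-4 at its EC80 concentration; % is scaled to controls: 0 for no effect and ±100 for the full control effect; compound concentration not given in the record; the text of the record puts the active cut at -80%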
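Calcium fluorescence in TRPML1-DL cells induced overnight with Tet: a 110 s read after compound pin addition, then a 110 s antagonist read after challenge with 54-4 at 4 uM final (EC80).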
D2 potentiator: Beta-Arrestin HTS for Positive Allosteric Modulators of the Human D2 Dopamine Receptor: Potentiators. potentiation, % (test concentration not listed). DiscoveRx D2 beta-arrestin cells, luminescence, 90 min; 100% = 57 uM dopamine signal. 360,000 tested, 0.23% active. D(2) dopamine receptor (Homo sapiens), P14416; active = potentiation of 50% or more; inconclusive = 30% to 50%; inactive = 30% or less;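 also: compound concentration not given in the record; tested on top of an EC20 dose of dopamine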
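D2 cells co-treated with compound plus 50 nM dopamine (EC20) for 90 min at 37 deg C to detect potentiation. Beta-arrestin recruitment was read as enzyme-fragment luminescence after 1 h at ambient temperature. Full response was set by 57 uM dopamine.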
Six1-Eya2 blk: qHTS Assay for Inhibitors of the Six1/Eya2 Interaction; Homeobox protein SIX1 (Homo sapiens) + Protein phosphatase EYA2 (Homo sapiens), …; AlphaScreen GST-Six1/His-Eya2 binding, biochemical; stronger effect = lower value; control for the full effect not named in the record; activity change, % (no concentration beside the values); 360,000 tested, 0.56% active; AID 651725, 2012; in the data active = activity change below about -65%; inconclusive = about -30% to -65%; inactive = above about -30%; also: % is scaled to controls: 0 for no effect and ±100 for the full control effect; compound concentration not given in the record
Target sequence (O00167 whole entry, looked up): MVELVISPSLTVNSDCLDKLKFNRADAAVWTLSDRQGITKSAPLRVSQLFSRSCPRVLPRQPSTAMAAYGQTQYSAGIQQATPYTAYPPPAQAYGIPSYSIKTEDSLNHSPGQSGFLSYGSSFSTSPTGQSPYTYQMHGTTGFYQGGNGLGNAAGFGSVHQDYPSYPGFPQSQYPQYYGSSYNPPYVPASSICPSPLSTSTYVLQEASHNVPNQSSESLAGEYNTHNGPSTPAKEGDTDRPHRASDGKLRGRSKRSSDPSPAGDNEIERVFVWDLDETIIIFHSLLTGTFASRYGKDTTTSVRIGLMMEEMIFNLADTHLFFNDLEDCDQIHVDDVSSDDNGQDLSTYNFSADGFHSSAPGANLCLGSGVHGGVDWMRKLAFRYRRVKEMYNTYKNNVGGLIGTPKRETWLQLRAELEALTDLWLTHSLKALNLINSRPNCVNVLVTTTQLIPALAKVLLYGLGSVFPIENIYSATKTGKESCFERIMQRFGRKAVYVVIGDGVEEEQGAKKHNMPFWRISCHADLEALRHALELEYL
Target sequence (Q15475 whole entry, looked up): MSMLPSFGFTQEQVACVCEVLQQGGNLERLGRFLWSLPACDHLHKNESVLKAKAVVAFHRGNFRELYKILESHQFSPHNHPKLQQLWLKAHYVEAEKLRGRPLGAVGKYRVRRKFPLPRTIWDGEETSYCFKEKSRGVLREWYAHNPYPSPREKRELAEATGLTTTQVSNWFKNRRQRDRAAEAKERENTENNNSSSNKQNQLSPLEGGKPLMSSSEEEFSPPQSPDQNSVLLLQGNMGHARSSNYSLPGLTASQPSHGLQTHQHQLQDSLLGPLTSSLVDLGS
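AlphaScreen with GST-Six1 and His-Eya2 (5X mix: 250 nM and 500 nM), glutathione donor and nickel acceptor beads; buffer 50 mM Tris pH 8.0, 300 mM NaCl, 1 mM TCEP; 1 h at 37 C in the dark.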
TRPML1 ag: qHTS for Agonists of the Human Mucolipin Transient Receptor Potential 1 (TRPML1). Mucolipin-1 (Homo sapiens), Q9GZU1. TRPML1-expressing cells, Ca2+ dye fluorescence, FDSS; host cell line not named in the record; reference of the full effect not given here. activation, % (no concentration beside the values). 410,000 tested, 0.12% active. AID 624414, 2012; in the data active = activation above about 50%; inconclusive = about 30% to 50%; inactive = below about 30%; also: 0% is about no effect; the text of the record puts the active cut at 80%
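Tetracycline-induced TRPML1-DL cells are seeded and incubated overnight before loading with a no-wash Ca2+ dye and quencher. Agonist activity is taken from the 110 s fluorescence read following compound pin-transfer on an FDSS, before EC80 54-4 challenge.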
PINK1 expr mod: A Quantitative High throughput Screen to Identify Chemical Modulators of PINK1 Expression; PINK1 immunofluorescence, high-content cytometry, 24 h; Potency, µM (highest dose often 76.6 µM), for the others: top-dose activation (PINK1 increase), hits mostly activators; 410,000 tested, 0.2% active; AID 624263, 2012; active = well fitted activation curve with a large enough effect; inconclusive = small, poorly fitted or top-dose-only effect; inactive = flat fitted curve, though single readings scatter; cell line not stated here;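 also: potency is read from the fitted curve at half-maximal effect; % of control where 0% means no effect; nearly all actives have a fitted effect of over 65% in size; a mitochondrial uncoupler was the plate control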
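A stable cell line was treated with compounds at 5 concentrations for 24 hours, with CCCP as control. PINK1 levels and mitochondrial localization were measured by immunofluorescence with mitochondrial, cell and nuclear markers after fixation, read by laser-scanning cytometry.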
D2 ag: Beta-Arrestin HTS for Positive Allosteric Modulators of the Human D2 Dopamine Receptor: Agonists. D(2) dopamine receptor (Homo sapiens), P14416. DiscoveRx PathHunter D2 beta-arrestin, luminescence, 90 min; 100% = 57 uM dopamine signal. 360,000 tested, 0.084% active. activation, % (concentration not given with the values); in the data active = activation above about 40%; inconclusive = about 15% to 40%; inactive = below about 15%; also: compound concentration not given in the record; the text of the record calls up to 30% inactive
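Agonist mode: compounds alone added to overnight-plated D2 PathHunter cells for 90 min at 37 C, with 57 uM final dopamine (EC100) defining full response. Beta-arrestin recruitment detected by chemiluminescent reagent, read after 1 h at ambient temperature.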
* marks the source's active call; other numbers are inactive results; ? = inconclusive; · = no result given; & = joins results of further samples; [ ] = remark or other dose.

SMILES | TRPML1 blocker | D2 potentiator | Six1-Eya2 blk | TRPML1 ag | PINK1 expr mod | D2 ag
CCc1ccc(N2CN(CCc3ccccc3)CNC2=S)cc1 | 13 | -11 | -3 | 3.6 | 2.4% | -6.5
CC(=O)Nc1ccc(S(=O)(=O)NCc2ccc(C(=O)NCCCN3CCC(C)CC3)cc2)cc1 | -7 | -21 | 0 | -0.4 | 0.1% | -3.4
CCN(CC)CCN(C(=O)c1ccc(S(=O)(=O)N(CC)c2ccccc2)cc1)c1nc2c(OC)ccc(OC)c2s1 | 11 | -40 | -15 | 0.0 | -1.2% | -1.0
C=CCn1c(SCc2nc3sc(C(=O)O)c(C)c3c(=O)[nH]2)nnc1-c1ccc(F)cc1 | 12 | -6 | 2 | 0.5 | -0.3% | -2.2
CCN(CC)C(=O)COc1ccc(/C(C)=N/Nc2ncc(Cl)cc2Cl)cc1 | -11 | -11 | 0 | 1.6 | 1.3% | -4.0
CC(=O)Nc1ccc(NC(=O)C2CCC(N3C(=O)C4C5C=CC(C6CC56)C4C3=O)CC2)cc1 (configuration not stated) | -12 | -3 | 3 | 1.1 | 4.8% | -5.9
COc1ccc(-c2nc3c(n2O)CCCC3=O)cc1OC | -3 | -3 | -1 | -0.7 | 1.4% | -4.7
N#CCOc1nc(N2CCCC2)nc(N2CCCC2)n1 | 3 | 13 | 5 | 0.3 | -1.0% | -1.4
Cc1cc(NC(=O)CCCn2nc([N+](=O)[O-])c(Cl)c2C)no1 | 12 | -5 | 9 | -0.9 | 0.0% | -0.3
COc1ccccc1OCCNc1cc(N2CCOCC2)ccc1[N+](=O)[O-] | -14 | -8 | -21 | 1.2 | 13%[38.3 µM] | -1.4
CCOC(=O)N(C)c1c(CC)nc2c(OCc3ccc(OC(F)F)cc3)cccn12 | 0 | -9 | -1 | -0.5 | -0.4% | 4.7
C=C(C)CSc1nnc([C@H](CCSC)NC(=O)OC(C)(C)C)o1 | -4 | -14 | -2 | 1.1 | -1.1% | -0.6
CCN1C(=O)CC(N2CCN(c3cccc(OC)c3)CC2)C1=O (configuration not stated) | -12 | -8 | 2 | -0.7 | -0.7% | -2.2
COc1ccc(Nc2nc(OC)nc(N3CCN(c4ccc(OC)cc4)CC3)n2)cc1 | 11 | 3 | -3 | 0.0 | 22% | 0.1
Cc1nc(-c2ccc3c(c2)CCC(=O)N3)cs1 | 13 | -3 | -7 | 1.5 | -0.3% | -11
Clc1cccc(Nc2c3c(nc4ncnn24)CCC3)c1 | -7 | -1 | -7 | 1.0 | -5.9%[38.3 µM] | -0.1
CC(C)Cc1nc2n[nH]c(N)c2c2c1CCCC2 | -3 | -6 | -3 | 0.3 | -3.2% | -2.0
Cc1ccc(-n2nnnc2SCC(=O)Nc2c(C)n(C)n(-c3ccccc3)c2=O)cc1 | 14 | -4 | 3 | 0.2 | · | 2.2
O=C(CN1CCN(c2cccc(C(F)(F)F)c2)CC1)N(C1CCCC1)C1CCS(=O)(=O)C1 (configuration not stated) | -9 | -16 | -7 | 4.6 | -0.9% | 0.9
Cc1cccc(-n2cc(-c3ccccc3)[nH]c2=S)c1 | 1 | 20 | -10 | -0.4 | -1.6% | 6.1
NC(=S)N/N=C1\CCSc2ccc(Cl)cc21 | -10 | -13 | 5 | 3.2 | 1.2% | -1.6
COc1ccc(CN2C(=O)C(NC(=O)c3ccccc3OC)(C(F)(F)F)N=C2c2ccccc2)cc1 (configuration not stated) | 17 | · | · | -0.3 | 0.3% | ·
O=S(=O)(Nc1ccc(O)c2ccccc12)c1ccc(F)cc1 | · | 0 | -7 | · | 2.6% | 11
COC(=O)c1cc2occc2n1CC(=O)Nc1ccc(OC)c(OC)c1OC | 9 | -9 | 3 | 0.2 | 7.0%[38.3 µM] | 1.5
O=C(NCCCNc1ccc(C(F)(F)F)cc1[N+](=O)[O-])c1ccc(F)cc1 | 12 | -23 | -6 | 3.0 | 9.2% | -2.0
O=C(COc1ccc(F)cc1)Nc1ccc2nc(SCc3ccccc3)sc2c1 | -6 | · | · | -1.1 | 2.0% | ·
CC(C)(C)NC(=O)C(c1ccc(F)cc1)N(Cc1ccco1)C(=O)c1csnn1 (configuration not stated) | -12 | -17 | -1 | -0.6 | 0.8% | -4.9
CCc1ccc(NC(=O)COC(=O)CN2C(=O)COc3ccccc32)cc1 | 10 | 1 | -3 | -0.9 | -1.5% | -3.3
CCCn1c(C)cc(C(=O)Cn2nnc3ccccc3c2=O)c1C | -28 | -3 | 3 | -0.4 | -1.0% | 2.6
Cc1ccc(S(=O)(=O)N(c2nc(NC(C)C)nc(NC(C)C)n2)n2cnnc2)cc1 | 11 | -13 | -5 | 2.0 | 4.6% | -3.3
C/C(=N\OCC(=O)Nc1ccc(F)c(F)c1F)c1cc2ccccc2o1 | 3 | -7 | 56 | 3.6 | 4.1% | 1.7
COc1ccc(CN2CCCN(CC(=O)Nc3ccc(Br)cc3F)S2(=O)=O)cc1 | -16 | · | · | 2.8 | 0.5% | ·
O=C(CNc1ccccc1F)Nc1cccc2ccccc12 | 15 | -12 | 6 | 0.0 | -0.5% | -3.4
N#CCCN(C(=S)Nc1ccc(Cl)c(Cl)c1)C1CCCCC1 | -4 | -21 | 3 | -0.1 | 10% | -1.1
COCCNC(=O)CCCN1C(=O)c2ccccc2Sc2ncccc21 | -4&16 | -4 | 0 | 0.9&0.2 | -3.0%&1.7% | -0.8
Cc1oc(-c2cccc(Cl)c2)nc1CSc1nncn2c1cc1occc12 | 1 | · | · | -0.7 | -1.5% | ·
CN1CCN(c2c(/C=N/O)c3ccccc3n2C)CC1 | 21 | -4 | 5 | -0.5 | 0.3% | 0.4
CC1=C(C(=O)Nc2ccc(C)cc2C)C(c2ccc([N+](=O)[O-])cc2)n2ncc(C(=O)Nc3ccc(F)cc3)c2N1 (configuration not stated) | 13 | · | · | 1.6 | -4.3% | ·
Cc1ccc(C(=O)NCCNc2ccc([N+](=O)[O-])cc2C(F)(F)F)cc1 | 7 | -25 | 14 | 1.5 | ? | -2.8
O=C(C1COc2ccccc2O1)N1CCN(S(=O)(=O)c2ccccc2)CC1 (configuration not stated) | -7 | 5 | 7 | -0.5 | -0.5% | -2.2
C#CCOc1ccc(/C=C2/C(=O)N(c3ccc(S(N)(=O)=O)cc3)N=C2C)cc1OC | 24 | -2 | -15 | -0.5 | 5.4% | 1.2
CCO[C@@H]1OC(C(=O)N2CCN(Cc3ccccc3)CC2)=C[C@H](c2csc3ccccc23)[C@H]1CCCO | 15 | -30 | -2 | -0.3 | 14% | 0.1
COc1ccc(Cl)cc1NC(=O)Nc1cc(C)on1 | -2 | -20 | 0 | 0.8 | 0.1% | -1.8
CCCc1c(C(=O)N/N=C(\C)c2cc(C)sc2C)nnn1-c1nonc1N | -9 | -18 | 13 | 0.4 | 4.1% | -1.8
COc1ccccc1C1CC(=O)NC(C)=C1C(=O)OC1CCCCCC1 (configuration not stated) | -16 | · | · | -0.4 | 6.5% | ·
Cn1c(=O)[nH]c(=O)c2c1nc(N1CCOCC1)n2CC(O)COc1ccccc1 (configuration not stated) | -17 | 6 | 1 | -0.8 | 3.1% | 0.3
CC1=C(C(=O)N2CCOCC2)CC(CC(=O)NCc2ccco2)C(=O)N1Cc1ccccc1 (configuration not stated) | 11 | 0 | 7 | 1.1 | 3.2% | -1.3
NS(=O)(=O)c1ccc(CCNCC(=O)NCc2ccccc2Cl)cc1 | 2 | -6 | 32 | 1.0 | -3.5% | -2.5
O=S1(=O)CCC(NC(=S)N2CCCCCC2)C1 (configuration not stated) | -2 | -18 | 3 | 0.6 | -0.5% | 0.3
Cc1ccc(/C(N)=N/OC(=O)c2ccc(F)cc2)cc1 | 2 | ? | 12 | 0.5 | 8.1%[38.3 µM] | ?
CC(=O)Nc1cccc(Nc2cnccn2)c1 | · | -3 | 8 | -0.3 | -0.8% | -5.8
Cc1nc2ccccc2n1CC(O)COC1CCCCC1 (configuration not stated) | -12 | 3 | 1 | -0.4 | 11%[38.3 µM] | 1.2
O=C(Nc1ccccc1N1CCN(C(=O)c2ccc(Cl)cc2)CC1)c1ccc(Br)cc1 | 88 | -14 | -23 | -0.5 | -27%[38.3 µM] | -1.0
CCOC(=O)N1c2ccccc2Sc2ccccc21 | -15 | -8 | 7 | 2.8 | 4.1% | -5.3
Cc1ccc(C)c(NC(=O)CCCCCCCCCCC2COCCO2)c1 (configuration not stated) | -19 | -5 | 7 | 1.6 | 6.4% | -3.2
O=C(NCc1ccco1)c1cccc(Nc2nc3ccc(Br)cc3[nH]2)c1 | 2 | -5 | 0 | -0.7 | ? | 2.7
COc1ccc(-n2nc(C(=O)NCC(=O)N3CCCC3)c3ccccc3c2=O)cc1Cl | 0 | -4 | 15 | 0.3 | 6.8% | -0.1

Ordered by formula weight (falling): some entries from above
SMILES | TRPML1 blocker | D2 potentiator | Six1-Eya2 blk | TRPML1 ag | PINK1 expr mod | D2 ag
CC1=C(C(=O)N2CCOCC2)CC(CC(=O)NCc2ccco2)C(=O)N1Cc1ccccc1 (configuration not stated) | 11 | 0 | 7 | 1.1 | 3.2% | -1.3
COc1ccc(-n2nc(C(=O)NCC(=O)N3CCCC3)c3ccccc3c2=O)cc1Cl | 0 | -4 | 15 | 0.3 | 6.8% | -0.1
Cn1c(=O)[nH]c(=O)c2c1nc(N1CCOCC1)n2CC(O)COc1ccccc1 (configuration not stated) | -17 | 6 | 1 | -0.8 | 3.1% | 0.3
NS(=O)(=O)c1ccc(CCNCC(=O)NCc2ccccc2Cl)cc1 | 2 | -6 | 32 | 1.0 | -3.5% | -2.5
Cc1ccc(C)c(NC(=O)CCCCCCCCCCC2COCCO2)c1 (configuration not stated) | -19 | -5 | 7 | 1.6 | 6.4% | -3.2
O=S1(=O)CCC(NC(=S)N2CCCCCC2)C1 (configuration not stated) | -2 | -18 | 3 | 0.6 | -0.5% | 0.3
Cc1ccc(/C(N)=N/OC(=O)c2ccc(F)cc2)cc1 | 2 | ? | 12 | 0.5 | 8.1%[38.3 µM] | ?
CCOC(=O)N1c2ccccc2Sc2ccccc21 | -15 | -8 | 7 | 2.8 | 4.1% | -5.3
CC(=O)Nc1cccc(Nc2cnccn2)c1 | · | -3 | 8 | -0.3 | -0.8% | -5.8

Source: PubChem (National Center for Advancing Translational Sciences (NCATS))
